# Compound activity from PubChem BioAssay.
# Vif TR-FRET: inhibitors of Vif binding to APOBEC3G peptide, primary screen, biochemical, TR-FRET, GST-Vif 1-94, biotin-A3G peptide, dose response retest (AID 1117319). Virion infectivity factor (Human immunodeficiency virus type 1 group M subtype B (isolate …. inhibition, %, or IC50 in µM where a hit was titrated. TR-FRET GST-Vif / biotin-A3G peptide binding; higher % means a stronger effect; test concentration not given here; strong numbers were not always called active. 260,000 compounds, 0.57% hits;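 active = above the screen mean plus three standard deviations and confirmed in dose response; inconclusive = results disagree or hit not tested in dose response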;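 note: Vif residues 1-94 fused to GST binding biotinylated APOBEC3G peptide 110-148; 0% = full assay without inhibitor and 100% = GST in place of GST-Vif; retest series ran down from 100 µM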
# HNF4A DNA FP: change in binding of human HNF4A to DNA, primary screen, biochemical, fluorescence polarization, FITC-DNA; 360,000 compounds, 0.3% hits; activity change, % at 10 µM; Hepatocyte nuclear factor 4-alpha (Homo sapiens), P41235; 1 h; in the data active = activity change above about 30%, passing the limit was not always enough;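 note: controls were the assay level and a saturating level of protein; the project sought stronger binding though the title names inhibitors; some compounds called inactive have numbers as strong as hits; positive values seem to mean higher polarization but the record does not say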
# Target sequence (P41235 whole entry, looked up): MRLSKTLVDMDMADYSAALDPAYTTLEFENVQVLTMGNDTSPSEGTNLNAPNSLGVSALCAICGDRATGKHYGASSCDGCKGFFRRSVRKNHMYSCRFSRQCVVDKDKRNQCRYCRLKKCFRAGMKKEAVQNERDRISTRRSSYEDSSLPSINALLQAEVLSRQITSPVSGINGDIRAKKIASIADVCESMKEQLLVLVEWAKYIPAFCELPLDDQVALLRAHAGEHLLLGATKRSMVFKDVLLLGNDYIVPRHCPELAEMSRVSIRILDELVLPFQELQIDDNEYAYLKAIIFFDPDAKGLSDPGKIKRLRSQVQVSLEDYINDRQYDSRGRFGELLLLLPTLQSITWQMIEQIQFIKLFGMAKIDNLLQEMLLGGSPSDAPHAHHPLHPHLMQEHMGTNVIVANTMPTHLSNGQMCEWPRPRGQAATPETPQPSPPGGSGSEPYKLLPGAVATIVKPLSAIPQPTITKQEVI
# rRNA inh HTS: reduced GFP signal of wild-type E. coli, primary screen, bacterial rRNA inhibitor project, GFP/RFP fluorescence, OD600, single point; E. coli WT GFP vs humanized-ribosome RFP mutants, 24 h; hits give low values; DMSO median 0, no signal -100; GFP signal change (wild-type ribosome), % (no concentration beside the values); 350,000 compounds, 1.6% hits; AID 720706, 2013;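 active = significant combined selectivity score with lowered wild-type GFP, culture density cut under 30%, mutant RFP and density less affected; inactive = any of these conditions unmet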; note: one replicate is shown; some compounds called inactive have numbers as strong as hits
# ALR H2O2 inh: inhibitors of human ALR sulfhydryl oxidase, primary screen, biochemical, H2O2 detection, HRP-luminol luminescence, single point | FAD-linked sulfhydryl oxidase ALR (Homo sapiens), P55789 | purified ALR, DTT oxidation | inhibition, % (concentration not given with the values) | 290,000 compounds, 3.8% hits | AID 485317, 2010;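 active = mean and each replicate at 75% or more; inconclusive = only one of the two met; inactive = neither met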;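 note: stock transfer was 7.5 nL into about 7.5 µL; 0% = neutral wells and 100% = wells with inactivated enzyme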
# Target sequence (P55789 whole entry, looked up): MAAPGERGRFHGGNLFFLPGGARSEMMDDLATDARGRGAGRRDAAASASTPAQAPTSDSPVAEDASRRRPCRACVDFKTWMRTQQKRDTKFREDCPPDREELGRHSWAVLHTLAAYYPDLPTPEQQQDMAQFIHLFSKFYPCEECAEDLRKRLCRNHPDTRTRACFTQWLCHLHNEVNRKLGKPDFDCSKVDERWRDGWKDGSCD
# MLL AF4-AF9 inh: inhibitors of AF4 peptide binding to AF9, primary screen, biochemical, AlphaScreen, biotin-AF4 peptide, FLAG-AF9, single point; inhibition, % at 10 µM; Protein AF-9 (Homo sapiens), P42568; 350,000 compounds, 0.47% hits; AID 651704, 2012;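 active = every replicate reaching a set inhibition limit, whatever the replicate mean, cut at about 25% in these data; inconclusive = mean inhibition reaches that limit but some replicates miss it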;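 note: 0% = plate neutral control median and 100% = total signal loss; the record names both 10 and 1 µM as test concentration; the first replicate is given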
# E coli growth: E. coli growth inhibition, primary screen, OD600 | AID 1053175, 2014 | OD600 absorbance (no concentration beside the values) | Escherichia coli growth, 23 h; hits give low values | 330,000 compounds, 0.21% hits;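 active = OD600 absorbance below the run mean of sample wells minus 3.6 SD, in any replicate, cut at about 0.56 in these data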;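 note: stock transfer was 300 nL into about 60 µL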
# FGF22 binding: binders of human FGF22 protein, primary screen, FGF22 synaptogenesis inhibitor project, biophysical, thermal shift, single point; Fibroblast growth factor 22 (Homo sapiens), Q9HCT0; recombinant FGF22 thermal shift, SYPRO orange fluorescence; percent of sucrose octasulfate shift, DMSO zero; calls only at 9.99 µM; 340,000 compounds, 1.5% hits;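 active = melting point raised past a set limit in the mean and every replicate; inconclusive = no clear call; three in four hits are not shown here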
# Target sequence (Q9HCT0 whole entry, looked up): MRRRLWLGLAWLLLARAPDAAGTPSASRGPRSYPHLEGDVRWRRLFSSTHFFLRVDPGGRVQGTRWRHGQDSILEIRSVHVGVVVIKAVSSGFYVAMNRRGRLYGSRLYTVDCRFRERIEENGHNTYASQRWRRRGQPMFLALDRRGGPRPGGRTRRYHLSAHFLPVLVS
# rRNA inh HTS OD600: also measured in rRNA inh HTS; calls as there; OD600 change, %; measured here: OD600 growth;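 optical density of the mix in the first replicate; 0 = DMSO median and -100 = no signal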
# rRNA inh HTS RFP: recorded beside rRNA inh HTS, whose call it bears; RFP signal change, %; measured here: RFP humanized mutant strains;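 first replicate; 0 = DMSO median and -100 = no signal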
# * marks the source's active call; other numbers are inactive results; i = inactive; ? = inconclusive; / = not tested or not shown.
SMILES,Vif TR-FRET,HNF4A DNA FP,rRNA inh HTS,rRNA inh HTS OD600,rRNA inh HTS RFP,ALR H2O2 inh,MLL AF4-AF9 inh,E coli growth,FGF22 binding
Cc1cccc(NC(=O)Nc2ccncc2)c1,7%,5.2,-1,-4,-1.1,84*,-0.7,0.67,i
CCOC(=O)c1cnc(Nc2nc3ccccc3o2)nc1CN1CCN(C)CC1,29%,3.4,/,/,/,/,/,0.62,/
CCC(=O)N1CCCCN2[C@@H](CO)[C@H](c3ccc(-c4cccc(C(=O)N(C)C)c4)cc3)[C@@H]2C1,/,/,5,14,-2.1,/,-3.3,/,i
CC(=O)Nc1cccc(-c2nc3ccccc3s2)c1,8%,-0.5,-16,11,-2.0,-12,-2.3,0.66,/
Cc1noc(C)c1NC(=O)Nc1ccc2c(c1)C(=O)N([C@@H](C)CO)C[C@@H](C)[C@@H](CN(C)C)OCCCC[C@@H](C)O2,/,/,-1,4,0.7,/,-1.5,/,i
COc1cccc(OCc2cc(C(=O)N(C)C3CCCCC3)no2)c1,0%,4.5,-6,-35,4.4,/,-0.5,/,i
Cc1n(CC(O)COC2CCCCC2)c2ccccc2[n+]1C (stereo not drawn),-5%,-1.1,/,/,/,2,/,0.63,/
CCc1ccc2nc(SCC(=O)N(CC)CC)c(C#N)cc2c1,?,1.4,/,/,/,-2,/,0.77,/
O=C1CCN(C(=O)c2ccccc2)C2CCCCC12 (stereo not drawn),3%,2.5,/,/,/,-7,/,0.7,/
Cc1ccc(S(=O)(=O)NC(C)C(=O)Nc2ccc3c(c2)OCO3)cc1 (stereo not drawn),/,-2.2,5,18,-0.4,-2,-0.2,0.7,i
O=C(CCS(=O)(=O)c1ccc(Br)cc1)NC1CCCC1,20µM*,6.5,20,13,-6.6,-1,-13,0.67,i
CCN(C[C@@H]1[C@@H](c2ccccc2)[C@H](CO)N1Cc1cccnc1)C(C)=O,/,/,3,10,-1.0,/,-2.0,/,i
CCc1cccc(C)c1NC(=O)c1ccc2c(c1)CCN2S(C)(=O)=O,/,0.7,-7,-6,2.1,1,4.0,0.65,i
COc1ccc(CN2C(=O)C(CC(=O)NCc3ccco3)CC(C(=O)N3CCOCC3)=C2C)cc1 (stereo not drawn),-4%,0.2,8,10,0.1,/,0.8,/,i
Cc1ccc(-c2nc(-c3ccncc3)no2)cc1C,/,1.1,2,1,-1.1,-6,0.5,0.68,i
Cc1c(C(=O)O)cccc1-c1ccc(/C=N/n2cnnc2)o1,17%,-9.6,11,16,-1.0,/,-0.3,/,i
CNC(=O)CN(c1ccc2c(c1)OCCO2)S(C)(=O)=O,-2%,3.1,/,/,/,-14,/,0.65,/
C[C@@H]1CCCCO[C@@H](CN(C)C(=O)Cc2ccccc2)[C@@H](C)CN([C@@H](C)CO)C(=O)c2cc(NC(=O)Nc3ccc(F)cc3)ccc2O1,/,/,2,0,-2.4,/,1.5,/,i
CCCC(=O)Nc1ccc2c(c1)C(=O)N(C)C[C@H](OC)[C@@H](C)CN(C(=O)c1cccnc1)[C@H](C)CO2,/,/,1,2,-1.3,/,-1.8,/,i
C/C=C/c1ccc2c(c1)O[C@@H](CN(C)C(=O)c1ccccc1)[C@H](C)CN([C@H](C)CO)S2(=O)=O,/,/,-3,-1,-2.9,/,3.2,/,i
CCC1Nc2ncnc(N3CCN(c4ccccc4)CC3)c2N(Cc2ccc(OC)cc2)C1=O (stereo not drawn),/,9.1,8,11,4.1,8,9.1,0.69,i
CSc1nc(N)nc2c1ncn2C1OC(CO)CC1O (stereo not drawn),/,-3.0,8,21,-2.4,/,-2.9,/,i
O=C(Nc1ccc2nc3n(c(=O)c2c1)CCCC3)c1cccnc1Cl,-15%,1.1,-4,-1,-2.9,0,-2.5,0.72,i
Cc1cc(N2CCOCC2)nc2ccc(Cl)cc12,/,1.6,-2,-2,0.2,-6,-5.4,0.63,i
COC(=O)[C@]12C[C@H](CC(=O)N3CCN(C(=O)c4ccco4)CC3)C(=O)N(Cc3ccccc3)C1=C[C@H](C1CCCC1)O[C@@H]2C,/,/,3,-2,2.5,/,0.0,/,i
SMILES,Vif TR-FRET,HNF4A DNA FP,rRNA inh HTS,rRNA inh HTS OD600,rRNA inh HTS RFP,ALR H2O2 inh,MLL AF4-AF9 inh,E coli growth,FGF22 binding
CN(CCN1CCOCC1)C(=O)c1cc(COc2ccc(F)cc2Cl)on1,-2%,3.2,-1,-9,-3.5,/,0.6,/,i
C[C@]12c3[nH]c4cc(-c5ccco5)ccc4c3CCN1C(=O)[C@@H](CC(=O)NCCCn1ccnc1)C[C@@H]2C(=O)N1CCCCC1,2%,2.4,/,/,/,/,15,0.69,i
CC1CCCCC1NC(=O)COC(=O)c1ccc(S(=O)(=O)N2CCOCC2)cc1 (stereo not drawn),13%,1.8,1,12,-3.7,1,/,0.74,/
Nc1c2c(=O)[nH]c(O)cc2nn1-c1ccccc1,4%,-4.2,-5,7,9.4,/,-0.5,0.68,i
CSc1nc(COC(=O)NC(C)C)c(COC(=O)NC(C)C)n1Cc1ccccc1,/,-2.1,-1,8,-2.9,/,-2.1,/,i
O=C(CCc1ccccc1)N1CCCC(Nc2ccc(F)cc2)C1 (stereo not drawn),-10%,-1.8,-7,-22,-3.6,98*,0.9,0.65,i
Cc1ccc(C)c(OCCC(=O)OCC(=O)Nc2ccc(Cl)cn2)c1,1%,-1.5,4,10,0.6,3,-0.5,0.63,i
COc1cc(C(=S)N2CCOCC2)cc(OC)c1OC(=O)c1ccccc1Cl,8%,-0.2,-6,-8,2.8,/,8.0,/,i
Cc1ccc(S(=O)(=O)N2CCN(C(=O)COC(=O)c3ccc(Cl)c(S(N)(=O)=O)c3)CC2)c(C)c1,/,0.4,-18,-18,9.2,/,-15,0.66,i
Cc1ccc(NC(=O)Cn2nnc(C(=O)NCc3ccco3)c2N)cc1,-6%,-3.6,/,/,/,-3,/,0.73,/
C(=N\n1cnnc1)/c1cccc(Oc2ccccc2)c1,31%,-2.4,/,/,/,-32,/,/,/
OC[C@@H](O)[C@H](O)C(/C=N/Nc1ccccc1)=N\Nc1ccccc1,26%,2.4,/,/,/,99*,8.9,/,i
Cc1noc(C)c1COc1ccc(C(=O)NCCc2ccc(S(N)(=O)=O)cc2)cc1,9%,2.1,-1,-6,-1.6,/,-1.0,0.62,i
C[C@@H]1CN([C@H](C)CO)C(=O)Cc2cc(NC(=O)Nc3cccc4ccccc34)ccc2O[C@H]1CN(C)CC1CCCCC1,/,/,-2,-1,3.5,/,-0.8,/,i
O=c1ccn([C@@H]2O[C@H](COS(=O)(=O)O)[C@@H](O)[C@H]2O)c(=O)[nH]1,/,-2.2,19,23,11,2,3.9,/,i
CC1(c2cccc3ccccc23)NC(=O)N(CC(=O)NC2CCS(=O)(=O)C2)C1=O (stereo not drawn),9%,-1.8,/,/,/,-11,-1.0,0.7,i
O=C(C1Cc2ccccc2CN1S(=O)(=O)c1cccs1)N1CCCCCC1 (stereo not drawn),-7%,3.6,/,/,/,-1,/,0.71,/
O=C(c1ccco1)N1CCN(Cc2nc(Cc3ccccc3)no2)CC1,/,3.3,13,-4,2.9,-6,-0.1,0.69,i
CN1CCN(CCCNC(=O)C2CC(=O)N(C3CCCCC3)C2)CC1 (stereo not drawn),79%,-2.2,/,/,/,-2,/,0.78,/
Cc1ccc(C2CC(=O)C(C=NCCN3CCN(CC(=O)Nc4cc(C)cc(C)c4)CC3)=C(O)C2)cc1 (stereo not drawn),7%,6.9,11,8,0.2,/,-2.1,0.71,i
CCc1nnc(NC(=O)CCC(=O)N2CCN(S(=O)(=O)c3ccc(OC)cc3)CC2)s1,/,-4.8,12,9,2.1,-8,-2.4,0.69,i
COc1ccc(CN2CCC(n3nccc3NC(=O)C3CC3)CC2)c(OC)c1OC,/,1.6,7,8,1.0,-5,-7.9,0.69,i
CNC[C@H]1OCCCC[C@@H](C)Oc2ccc(NC(=O)Cc3ccccc3)cc2C(=O)N([C@@H](C)CO)C[C@H]1C,/,/,8,0,-1.9,/,-6.5,/,i
O=C(O)c1ccc(S(=O)(=O)/N=C2\C=C(Nc3ccccc3F)C(=O)c3ccccc32)cc1,/,0.0,-55,-73,-11,70,13,0.62,i
Cc1c(OC(C)C(=O)NCc2ccncc2)ccc2c3c(c(=O)oc12)CCC3 (stereo not drawn),/,-2.6,-4,-12,8.9,16,-3.4,0.68,i
SMILES,Vif TR-FRET,HNF4A DNA FP,rRNA inh HTS,rRNA inh HTS OD600,rRNA inh HTS RFP,ALR H2O2 inh,MLL AF4-AF9 inh,E coli growth,FGF22 binding
CN(C)c1ccnc(SCc2ccccc2Cl)c1C#N,-1%,1.8,/,/,/,-7,/,0.67,/
COc1ccc(N(CC(=O)Nc2c(C)n(C)n(-c3ccccc3)c2=O)S(=O)(=O)c2ccc(C)cc2)cc1OC,0%,1.4,6,5,0.0,-4,-1.2,0.67,i
CCCSc1sc(C(=O)OC)c(-c2cccs2)c1C#N,4%,/,-9,-9,-1.7,-6,/,0.66,i
C[C@H](CO)N1C[C@H](C)[C@H](CN(C)C(=O)c2ccccc2)OCCCC[C@H](C)Oc2ccc(NC(=O)Nc3ccc4c(c3)OCO4)cc2C1=O,/,/,1,-10,0.5,/,-9.3,/,i
C[C@H]1CN([C@@H](C)CO)C(=O)Cc2cc(NS(=O)(=O)c3ccccc3)ccc2O[C@H]1CN(C)S(=O)(=O)c1cccs1,/,/,6,-8,0.6,/,0.0,/,i
Cc1nc(NC(=O)CSc2nnnn2Cc2ccccc2)sc1C,4%,-0.7,/,/,/,-10,/,0.78,/
COc1cc(C(=O)CCc2ccc3c(c2)OCO3)cc(OC)c1OC,-3%,1.9,3,3,-2.1,/,-10,0.68,i
O=c1[nH]nc(Cc2ccc(-c3ccc(Cl)cc3)o2)c2ccccc12,?,7.7,/,/,/,/,/,0.76,/
O=C(Nc1ccc2c(c1)OCO2)C1CC(c2ccc(Cl)cc2)=NO1 (stereo not drawn),-1%,0.3,/,/,/,4,/,0.74,/
COc1cccc(NC(=O)c2ccc[n+](C)c2)c1,-6%,2.2,14,14,-1.1,/,-1.7,0.65,i
COC(=O)c1c(SCc2ccc(C#N)cc2)nc(=O)[nH]c1C,-17%,6.5,8,-1,6.2,44,-0.6,0.65,i
CC(=O)N1CCN(CC(=O)Nc2ccc([N+](=O)[O-])cc2Br)CC1,5%,3.1,10,5,1.1,-59,1.3,0.71,/
CCC(=O)N1CC2(C1)CN(CC1CCOCC1)[C@H](CO)c1c2c2ccc(OC)cc2n1C,/,/,7,8,-3.3,/,-0.9,/,i
Cc1cc(C)nc(SCc2nc3nc(C)cc(C)n3c2Br)n1,27%,-1.1,/,/,/,2,/,0.71,/
COc1ccc(Cl)cc1Nc1ncnc2sc(C)c(S(=O)(=O)N3CCC(C)CC3)c12,29%,0.4,/,/,/,/,/,0.77,/

# Some of the compounds tested; rates above refer to the full screens.
